Source: PubChem BioAssay
ALR inh: inhibitors of human sulfhydryl oxidase ALR. P55789. purified ALR, DTT oxidation, H2O2 HRP-luminol luminescence. inhibition, % (no concentration beside the values). 290,000 compounds, 3.8% hits;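 active = mean and each replicate at 75% or more; inconclusive = only one of the two met; inactive = neither met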;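 note: stock transfer was 7.5 nL into about 7.5 µL; 0% = neutral wells and 100% = wells with inactivated enzyme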
MLL AF4-AF9 inh: blocks AF4 peptide binding to human AF9; P42568; AlphaScreen, biotin-AF4 peptide binding to FLAG-AF9; inhibition, % at 10 µM; 350,000 compounds, 0.47% hits; AID 651704;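 active = every replicate reaching a set inhibition limit, whatever the replicate mean, cut at about 25% in these data; inconclusive = mean inhibition reaches that limit but some replicates miss it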;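 note: 0% = plate neutral control median and 100% = total signal loss; the record names both 10 and 1 µM as test concentration; the first replicate is given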
Target sequence (P42568 whole entry, looked up): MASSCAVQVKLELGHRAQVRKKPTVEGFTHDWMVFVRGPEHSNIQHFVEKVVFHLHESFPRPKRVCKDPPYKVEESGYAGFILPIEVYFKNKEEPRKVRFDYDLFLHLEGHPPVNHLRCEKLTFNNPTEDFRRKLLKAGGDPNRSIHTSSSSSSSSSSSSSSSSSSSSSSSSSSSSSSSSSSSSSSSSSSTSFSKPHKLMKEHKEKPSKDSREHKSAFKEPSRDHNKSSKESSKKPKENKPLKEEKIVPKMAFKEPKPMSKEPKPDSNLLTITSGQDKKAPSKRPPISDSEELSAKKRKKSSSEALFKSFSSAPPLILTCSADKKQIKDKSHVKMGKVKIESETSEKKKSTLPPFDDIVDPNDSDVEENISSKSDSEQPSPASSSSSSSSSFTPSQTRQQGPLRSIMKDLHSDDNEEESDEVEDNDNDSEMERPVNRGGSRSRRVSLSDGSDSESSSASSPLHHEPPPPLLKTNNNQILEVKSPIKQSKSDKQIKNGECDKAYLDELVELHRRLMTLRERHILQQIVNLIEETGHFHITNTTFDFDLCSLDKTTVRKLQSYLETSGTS
E coli growth: E. coli growth inhibition | AID 1053175 | OD600 absorbance (concentration not given with the values) | 330,000 compounds, 0.21% hits | Escherichia coli growth, OD600, 23 h; stronger effect = lower value;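 active = OD600 absorbance below the run mean of sample wells minus 3.6 SD, in any replicate, cut at about 0.56 in these data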;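 note: stock transfer was 300 nL into about 60 µL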
HNF4A DNA FP: change in binding of human HNF4 alpha to DNA | P41235 | HNF4a-FITC DNA binding, fluorescence polarization, 1 h | activity change, % at 10 µM | 360,000 compounds, 0.3% hits | AID 1224865; in the data active = activity change above about 30%, passing the limit was not always enough;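 note: controls were the assay level and a saturating level of protein; the project sought stronger binding though the title names inhibitors; some compounds called inactive have numbers as strong as hits; positive values seem to mean higher polarization but the record does not say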
Target sequence (P41235 whole entry, looked up): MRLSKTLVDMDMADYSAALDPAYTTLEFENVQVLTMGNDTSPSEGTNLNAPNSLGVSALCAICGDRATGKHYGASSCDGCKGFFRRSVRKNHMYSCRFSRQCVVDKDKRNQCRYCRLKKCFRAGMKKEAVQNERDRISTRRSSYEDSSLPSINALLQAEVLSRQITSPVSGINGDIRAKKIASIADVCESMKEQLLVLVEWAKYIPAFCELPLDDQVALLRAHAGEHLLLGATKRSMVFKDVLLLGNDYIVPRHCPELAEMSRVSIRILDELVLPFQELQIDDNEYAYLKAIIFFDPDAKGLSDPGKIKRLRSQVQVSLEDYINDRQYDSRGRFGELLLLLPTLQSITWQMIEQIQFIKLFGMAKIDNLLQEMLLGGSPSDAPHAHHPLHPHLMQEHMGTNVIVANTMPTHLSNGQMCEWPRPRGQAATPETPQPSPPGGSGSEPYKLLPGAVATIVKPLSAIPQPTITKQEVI
Vif TR-FRET: inhibitors of Vif binding to APOBEC3G peptide, primary screen, biochemical, TR-FRET, GST-Vif 1-94, biotin-A3G peptide, dose response retest (AID 1117319); TR-FRET GST-Vif / biotin-A3G peptide binding; higher % means a stronger effect; test concentration not given here; strong numbers were not always called active; one-dose inhibition, %; IC50 in µM for titrated hits; 260,000 compounds, 0.57% hits;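 active = above the screen mean plus three standard deviations and confirmed in dose response; inconclusive = results disagree or hit not tested in dose response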;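 note: Vif residues 1-94 fused to GST binding biotinylated APOBEC3G peptide 110-148; 0% = full assay without inhibitor and 100% = GST in place of GST-Vif; retest series ran down from 100 µM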
FGF22 binding: FGF22 (human) thermal shift binding; Q9HCT0; recombinant FGF22 thermal shift, SYPRO orange fluorescence; percent of sucrose octasulfate shift, DMSO zero; calls only at 9.99 µM; 340,000 compounds, 1.5% hits;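 active = melting point raised past a set limit in the mean and every replicate; inconclusive = no clear call; three in four hits are not shown here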
Ecoli rRNA inh: inhibits bacterial ribosomal RNA function over humanized ribosomes; E. coli WT GFP vs humanized-ribosome RFP mutants, fluorescence, 24 h; stronger effect = lower value; DMSO median 0, no signal -100; 350,000 compounds, 1.6% hits; AID 720706; GFP signal change (wild-type ribosome), % (test concentration not listed);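 active = significant combined selectivity score with lowered wild-type GFP, culture density cut under 30%, mutant RFP and density less affected; inactive = any of these conditions unmet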; note: one replicate is shown; some compounds called inactive have numbers as strong as hits
Ecoli rRNA inh OD600: also measured in Ecoli rRNA inh; calls as there; OD600 change, %; measured here: OD600 growth;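 optical density of the mix in the first replicate; 0 = DMSO median and -100 = no signal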
Ecoli rRNA inh RFP: further read-out of Ecoli rRNA inh, marked with its call; RFP signal change, %; measured here: RFP humanized mutant strains;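 first replicate; 0 = DMSO median and -100 = no signal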
The depositor's hits bear a star; i = inactive; u = inconclusive; x = no result given. The list is partial (hit frequency here may not be typical).

SMILES,Ecoli rRNA inh OD600,E coli growth,HNF4A DNA FP,Ecoli rRNA inh RFP,ALR inh,Ecoli rRNA inh,Vif TR-FRET,FGF22 binding,MLL AF4-AF9 inh
C[C@H](CO)N1C[C@H](C)[C@@H](CN(C)C(=O)CCCN(C)C)OCCCC[C@H](C)Oc2ccc(NS(=O)(=O)c3cn(C)cn3)cc2C1=O,8,x,x,-1.6,x,1,x,i,-0.4
O=C(NCCc1ccc(Cl)cc1)c1cc(=O)[nH]c2ccccc12,8,0.73,2.1,-1.1,3,8,-6%,i,1.6
Cc1cccc(C)c1NC(=O)CN1CCC(Cc2ccccc2)CC1,2,x,0.4,-5.5,x,-2,x,i,-0.7
Cc1ccccc1OCCNC(=O)/C=C/c1ccccc1,-48,0.64,-0.9,9.9,x,-26,0%,i,-1.1
O=C1C=CC(=O)N1,12,x,4.7,2.1,-12,7,x,i,-3.9
CC(=O)Nc1cc2ccc(OC(C)=O)cc2oc1=O,8,0.74,-0.5,0.1,-30,11,3%,i,-6.2
C[C@H](CO)N1C[C@H](C)[C@@H](CN(C)C(=O)Nc2ccc3c(c2)OCO3)Oc2ccc(NC(=O)CCCN(C)C)cc2C1=O,-1,x,x,-0.7,x,-2,x,i,-2.8
C=CCn1c(SCc2csc(C)n2)nc2sc3c(c2c1=O)CCCC3,x,x,-2.8,x,-3,x,0%,x,x
Cc1cc(C)c(C#N)c(Nc2ccc(F)cc2)n1,8,0.67,-1.0,0.0,-1,8,x,i,-3.6
C=C(C)CCOC(=O)C(CC(=O)O)NCc1ccco1 (stereo not drawn),5,0.69,-12,1.7,-8,23,u,i,-14
O=C(NCCc1c[nH]c2ccccc12)N[C@@H](Cc1ccccc1)C(=O)O,8,0.69,-8.9,0.2,4,5,-2%,i,0.0
COc1cccc(-n2nnc(S(=O)(=O)c3ccc(C)cc3)c2N)c1,-12,0.67,-2.9,-6.4,-27,-8,-5%,i,-57
CCN(CC)CCOC(=O)C1(c2ccc(OC)c(OC)c2)CCCC1,x,0.74,-1.3,x,1,x,4%,i,7.5
Cc1ccc(Nc2nc(C(=O)N3CCC(C(=O)NCc4ccccc4)CC3)cs2)cc1,-17,0.69,-3.3,9.9,1,-1,x,i,0.5
CC(NC(=O)c1cc2c(=O)n3ccccc3nc2n(CC2CCCO2)c1=N)c1ccccc1 (stereo not drawn),10,0.68,4.3,-3.0,-3,4,5%,i,-6.1
COc1cc2c(cc1OC)C1(C)N(CC2)C(C(C)=O)=NN1c1ccc(Cl)cc1 (stereo not drawn),4.6*,0.66,8.2,-1.1*,72,-17*,2%,i,-21
CC(=O)Nc1ccc(S(=O)(=O)N2CCN(S(=O)(=O)c3cccs3)CC2)cc1,4,0.66,0.4,-2.5,x,8,1%,i,0.1
Cc1ccc(-c2ccc3c(c2)O[C@@H](CN(C)C(=O)CC2CC2)[C@@H](C)CN([C@H](C)CO)S3(=O)=O)cc1,-46,x,x,18,x,-13,x,i,-0.7
CCCCOc1ccc(C(=O)NCC(=O)NCc2ccncc2)cc1,7,x,-3.0,-1.1,-18,9,x,i,0.1
Cc1cccn2c(CNC3CCCc4ccccc43)c(C(=O)N3CCOCC3)nc12 (stereo not drawn),-4,0.72,6.9,0.6,x,5,-2%,i,3.0
O=C(CN1C(=O)NC2(CCCC2)C1=O)Nc1cc(Cl)ccc1N1CCCC1,-13,0.69,1.4,3.4,87*,-11,-2%,i,2.4
COC(=O)Nc1cc(C(F)(F)F)ccc1N1CCN(c2ccccc2)CC1,3,0.68,-2.7,1.1,-6,6,-1%,i,5.0
N#Cc1ccc(CN(c2ccncc2)S(=O)(=O)c2ccccc2)cc1,8,0.66,1.7,-2.5,-1,-1,-4%,i,-2.1
O=C(C[C@H]1CC[C@@H]2[C@H](COC[C@@H](O)CN2C(=O)c2cccnc2)O1)NCc1ccc(Cl)cc1,3,x,x,18,x,4,x,i,-1.5
CC1CCCN(CCCNC(=O)c2ccc(CS(=O)(=O)Cc3cccc(Cl)c3)o2)C1 (stereo not drawn),8,0.69,-4.8,-0.1,-2,7,x,i,1.4
Cc1ccccc1CN(C)C[C@@H]1OCc2cn(nn2)CCCC(=O)N([C@H](C)CO)C[C@H]1C,1,x,x,-0.8,x,-1,x,i,-4.2
CCc1ccc(-c2nc(SCC(=O)c3c(N)n(C4CC4)c(=O)[nH]c3=O)n[nH]2)cc1,2,0.7,0.6,-0.9,8,2,82%,i,-2.1
COc1ccccc1N(C)S(=O)(=O)c1ccc(C)c(C(=O)Nc2nccs2)c1,-26,0.68,-0.3,-2.7,0,-23,-6%,i,1.1
O=C(COC(=O)CN1C(=O)c2ccccc2C1=O)NC1CCCCC1,12,x,5.4,0.1,0,11,x,i,-2.0
CC(=O)c1c(C(C)=O)c(C)n(-c2nc(-c3cccs3)c(C)s2)c1C,x,0.71,2.5,x,-11,x,-19%,x,x

7 compounds already listed, ordered by the value under MLL AF4-AF9 inh, largest number first:
SMILES,Ecoli rRNA inh OD600,HNF4A DNA FP,Ecoli rRNA inh RFP,ALR inh,Ecoli rRNA inh,Vif TR-FRET,FGF22 binding,MLL AF4-AF9 inh
CCN(CC)CCOC(=O)C1(c2ccc(OC)c(OC)c2)CCCC1,x,-1.3,x,1,x,4%,i,7.5
Cc1cccc(C)c1NC(=O)CN1CCC(Cc2ccccc2)CC1,2,0.4,-5.5,x,-2,x,i,-0.7
O=C(C[C@H]1CC[C@@H]2[C@H](COC[C@@H](O)CN2C(=O)c2cccnc2)O1)NCc1ccc(Cl)cc1,3,x,18,x,4,x,i,-1.5
N#Cc1ccc(CN(c2ccncc2)S(=O)(=O)c2ccccc2)cc1,8,1.7,-2.5,-1,-1,-4%,i,-2.1
Cc1ccccc1CN(C)C[C@@H]1OCc2cn(nn2)CCCC(=O)N([C@H](C)CO)C[C@H]1C,1,x,-0.8,x,-1,x,i,-4.2
CC(=O)Nc1cc2ccc(OC(C)=O)cc2oc1=O,8,-0.5,0.1,-30,11,3%,i,-6.2
C=C(C)CCOC(=O)C(CC(=O)O)NCc1ccco1 (stereo not drawn),5,-12,1.7,-8,23,u,i,-14

Complete entries, quoted from the list. Order of values: Ecoli rRNA inh OD600, E coli growth, HNF4A DNA FP, Ecoli rRNA inh RFP, ALR inh, Ecoli rRNA inh, Vif TR-FRET, FGF22 binding, MLL AF4-AF9 inh
CC1CCCN(CCCNC(=O)c2ccc(CS(=O)(=O)Cc3cccc(Cl)c3)o2)C1 (stereo not drawn) across the screens: 8, 0.69, -4.8, -0.1, -2, 7, x, i, 1.4
Cc1ccc(-c2ccc3c(c2)O[C@@H](CN(C)C(=O)CC2CC2)[C@@H](C)CN([C@H](C)CO)S3(=O)=O)cc1 across the screens: -46, x, x, 18, x, -13, x, i, -0.7
Cc1ccc(Nc2nc(C(=O)N3CCC(C(=O)NCc4ccccc4)CC3)cs2)cc1 across the screens: -17, 0.69, -3.3, 9.9, 1, -1, x, i, 0.5

Following part
SMILES,Ecoli rRNA inh OD600,E coli growth,HNF4A DNA FP,Ecoli rRNA inh RFP,ALR inh,Ecoli rRNA inh,Vif TR-FRET,FGF22 binding,MLL AF4-AF9 inh
O=C(NC(=S)Nc1ccc(N2CCOCC2)c(Cl)c1)c1cccs1,-31,0.7,-2.2,-3.6,14,-30,-2%,i,2.7
C=CCN1c2ccccc2[C@]23C[C@@H](C(=O)OC)N=C2NC(C(=O)OC)=C(C(=O)OC)[C@H]13,8,x,-2.1,-5.5,10,10,x,i,6.4
COc1cc([N+](=O)[O-])ccc1NC(=S)NC(=O)CC(C)(C)C,20,0.67,-1.6,-0.3,-1,15,-6%,i,0.6
CC(C)NC(=O)N(C)C[C@H]1Oc2ncc(-c3ccc(C(=O)N(C)C)cc3)cc2C(=O)N([C@H](C)CO)C[C@H]1C,3,x,x,-1.0,x,3,x,i,-1.2
CN1CCCCN2[C@@H](CO)[C@@H](c3ccc(-c4ccc(F)cc4)cc3)[C@@H]2C1,8,x,x,-3.0,x,2,x,i,0.7
O=C(OCCN1C(=O)c2ccccc2C1=O)c1cc(S(=O)(=O)N2CCOCC2)ccc1Cl,x,0.68,-1.1,x,-5,x,30%,x,x
OCCN1CCN(c2ncnc3c2ncn3[C@H]2CN(Cc3ccccc3)C[C@@H](CO)O2)CC1,-4,x,1.4,-0.5,x,2,x,i,-0.7
CCCCCCCCN1C(=O)[C@H](CC(=O)NCCCOCCCC)C[C@@]2(C(=O)OC)CCCCC=C12,-1,x,2.8,4.6,x,3,x,i,-1.1
CC(=O)NC(CC(=O)NNC(=O)C(C)Oc1ccccc1F)c1ccccc1 (stereo not drawn),11,0.71,2.9,0.9,-18,13,-6%,i,4.8
O=C(NCCC1=CCCCC1)c1ccc(=O)oc1,x,0.64,-0.3,x,-2,x,24%,x,x
O=C(Nc1ccc2c(c1)[C@H]1C[C@@H](CC(=O)N3CCc4ccccc4C3)O[C@H](CO)[C@H]1O2)c1cccnc1,-10,x,x,3.3,x,-9,x,i,7.4
COc1cc(N)c(C(O)c2nccc3cc(OC)c(OC)cc23)cc1OC (stereo not drawn),-8,0.69,3.7,-5.0,x,-8,x,i,-2.8
CO[C@H]1CN(C)C(=O)c2ccc(NC(C)=O)cc2OC[C@@H](C)N(CCc2ccccc2)C[C@H]1C,3,x,x,-2.4,x,0,x,i,-0.2
COc1ccc(/C=N/Nc2ncnc(Cl)c2N)cc1OC,1,x,-0.8,2.2,-78,3,x,i,3.7
N#Cc1ccc(-c2ccc(F)cc2)nc1SCC(=O)Nc1sc2c(c1C#N)CCC2,x,0.76,6.4,x,55,x,-104%,x,x
CNC(=S)NN(c1ccccc1)c1ccccc1,6,0.71,3.2,-3.5,95*,12,6%,i,-19
Cc1ccccc1S(=O)(=O)N1[C@H](C#N)[C@@H](c2ccccc2)[C@@H]1CO,-23,x,x,-0.5,x,-12,x,i,0.1
O=c1[nH]cnc2c1ncn2-c1ccc(Cl)cc1,10,0.67,-1.6,0.9,x,14,-1%,i,-1.0
Cc1ccc(NC(=O)CCNS(=O)(=O)c2ccc3[nH]c(=O)oc3c2)cc1F,10,0.63,3.1,0.9,3,5,x,i,-0.6
CC(C)(C)OC(=O)C(C1NC(C(=O)O)C(C)(C)S1)N1C(=O)c2ccccc2C1=O (stereo not drawn),25,0.71,0.7,2.8,x,13,4%,i,9.1
N#C/C(=C\c1ccc2c(c1)OCO2)C(N)=S,-3,0.64,-1.4,3.5,1,2,-1%,i,-11
Cc1ccc(NC(=O)COc2ccc(-c3nnco3)cc2)cc1S(=O)(=O)N1CCOCC1,6,0.69,-1.5,4.3,-20,11,x,i,-4.4
